Screening results deposited in PubChem BioAssay by National Center for Advancing Translational Sciences (NCATS).
HSD17B inhib = qHTS Assay for Inhibitors of HSD17B4, hydroxysteroid (17-beta) dehydrogenase 4 | actives 7.6% (n = 75,000) | recombinant HSD17B10, NADH fluorescence kinetic; many of its hits are not listed in these tables | AID 893, 2007 | Potency, µM (doses to about 57.1 µM), for inactives: at the top dose activity change, negative = inhibition, hits mostly inhibitors; active = well fitted inhibition curve with a large enough effect; inconclusive = small, poorly fitted or top-dose-only effect; inactive = no such curve, though single readings can be large or run the other way;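 also: the protocol describes HADH2 (HSD17B10) and not the HSD17B4 of the title; nearly all actives have a fitted effect of over 70% in size; most hits overshoot -100% by far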
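Activity followed as NADH fluorescence increase (ex 360, em 450 nm) every 30 seconds for 4 min, using final 90 uM beta-hydroxybutyryl CoA and 1 mM NAD+. Recombinant His-tagged enzyme, 20 nM, pH 9.0 Tris buffer, 15 min compound preincubation.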
* hit, by the source's call; u = inconclusive; [ ] = another dose, or the depositor's remark. % is scaled to controls: 0 for no effect and ±100 for the full control effect; potency is read from the fitted curve at half-maximal effect.

A first look, 2 compounds:
SMILES | HSD17B inhib
CC(=O)N1[C@H](C)C=C[C@]1(Cc1ccccc1)C(=O)NCCc1c[nH]c2ccccc12 | 4%
CC(NC(=O)COC(=O)CCNC(=O)c1ccco1)C12CC3CC(CC(C3)C1)C2 (stereo unspecified) | 12%

The whole of this part, from the first entry:
SMILES | HSD17B inhib
CC(=O)N1[C@H](C)C=C[C@]1(Cc1ccccc1)C(=O)NCCc1c[nH]c2ccccc12 | 4%
CC(NC(=O)COC(=O)CCNC(=O)c1ccco1)C12CC3CC(CC(C3)C1)C2 (stereo unspecified) | 12%
O=C(O)CCn1ccnc1-c1ccccc1 | 4%
O=C(O)[C@H]1CCCC[C@@H]1c1c2ccc(=O)c(O)c-2oc2c(O)c(O)ccc12 | 2µM*
O=C(Cc1n[nH]c(=O)c2ccccc12)NCc1ccccn1 | 9%
O=C1c2cccnc2C(=O)N1Cc1cccs1 | 6%
O=c1nc(N(c2ccccc2)c2ccccc2)[nH]c(=O)[nH]1 | -14%
c1ccc(-c2c3ccccc3nc3[nH]c4ccccc4c23)cc1 | 10µM*
Cc1cc2c(nc1C)CCCCN2C[C@H](O)CN1CCCc2nc(-c3ccc(Br)cc3)ccc21 | -5%[11.4 µM]
CCOC(=O)C1=C(N)Oc2c(oc(CO)cc2=O)C1c1c(F)cccc1Cl (stereo unspecified) | 0%
CC1Oc2ccccc2C=C1C1/C(=C(/O)c2ccccc2)C(=O)C(=O)N1CCCN(C)C (stereo unspecified) | -7%
NCCCC(N)CC(=O)NCC1NC(=O)C(CO)NC(=O)C(N)CNC(=O)C(C2CCN=C(N)N2)NC(=O)/C(=C\NC(N)=O)NC1=O (stereo unspecified) | 2%
CCOc1cccc(NC(=O)C2CCCN(S(=O)(=O)c3ccc(OC)cc3)C2)c1 (stereo unspecified) | -5%
O=C(C1CCN(S(=O)(=O)c2cccc3nsnc23)CC1)N1CC=C(c2ccccc2)CC1 | 3%
CCC(=O)N1c2ccc(S(=O)(=O)CCC(=O)N3CCn4c3nc3ccccc34)cc2CC1C (stereo unspecified) | 6%
O=C(Nc1cccnc1)Nc1ccc2c(c1)OCO2 | 6%
Nc1nonc1-c1nc2ccccc2n1CCC(=O)O | -9%
CCOC(=O)N1CCN(CC(O)c2ccc3c(c2)CCN3)CC1 (stereo unspecified) | 7%
Cc1nn(Cc2ccccc2Cl)c(C)c1C(=O)Nc1nnc(C2CC2)s1 | 1%
Cc1ccc(OCCCC(=O)Nc2ccc3c(c2)OCO3)cc1 | -9%
CCCCNC(=O)C(c1ccc(-c2ccccc2)cc1)N(CCN1CCOCC1)C(=O)CCCCCN1C(=O)NC(c2ccc([N+](=O)[O-])cc2)C(C(=O)OCc2ccccc2)=C1C (stereo unspecified) | -1%
Nc1csnc1C(=O)O | 8%
COC(=O)CN1C(=O)C(C)=C(c2ccc(C)cc2)S1(=O)=O | u
CCOC(=O)c1oc2ccccc2c1CSc1nnnn1-c1ccccc1 | -3%
C=CCn1c(SCc2c(C)noc2C)nc2sc3c(c2c1=O)CCCCC3 | 3%
CCCCNc1nc(C)nc2c1nc(-c1ccccc1)n2CC(C)(C)CN(C)C | 20µM*
CCc1nc2ccccc2n1Cc1ccccc1OC | -4%
CN(C)S(=O)(=O)c1ccc(N2CCOCC2)nc1 | 25µM*
O=C(Nc1ccc2c3c(cccc13)CC2)c1ccco1 | -4%
CN(C)/C=N/c1nc2ccc3c(c2s1)CCCC3 | -12%
Cc1c(C(=O)NCc2ccc3c(c2)OCO3)oc2ccc(S(=O)(=O)N3CCCCC3)cc12 | -22%
CN(C)S(=O)(=O)N1CCC(Cc2ccccc2)CC1 | 7%
Cc1[nH]c2ccccc2c1C(=O)CSc1ncn[nH]1 | 2%
N#CCCN1CCN(S(=O)(=O)c2ccc(S(=O)(=O)NCC3CCCO3)cc2)CC1 (stereo unspecified) | 1%
CCOc1cc(S(=O)(=O)NCc2ccccn2)c(C)cc1C | 6%
CC(C)CCNC(=O)CN(C)S(=O)(=O)c1cccc2nsnc12 | 7%
COCC(=O)N1CCC[C@@]2(CCN(Cc3nccs3)C2)C1 | 3%
COCCNC(=O)c1ccccc1NC(=O)c1ccc(OC)c(OC)c1 | 5%
COC(=O)[C@@]1(Cc2ccc(OC)cc2)[C@H]2c3cc(C(=O)N(C)C)n(Cc4ccc(O)c(OC)c4)c3C[C@H]2CN1C(=O)c1ccccc1 | 11%
COc1ccc(S(=O)(=O)NCCOc2ccccc2)cc1OC | 5%
Fc1cccc2sc(N3CCOCC3)nc12 | 9%
O=C(CN1CCC(n2nnc3ccccc32)CC1)NCc1cccs1 | -5%
COc1ccc(N2CCN(C(=O)CN(c3ccccc3)S(C)(=O)=O)CC2)cc1 | 6%
CCN1CCCC1CNC(=O)c1ccc(-n2c(=O)c(=O)[nH]c3ccccc32)cc1 (stereo unspecified) | 3%
CC(=O)NC(CCS(C)(=O)=O)C(=O)N1CCc2ccccc21 (stereo unspecified) | -6%
COc1cccc(C(=O)Nc2ccc(NC(=O)C(C)C)nc2)c1 | -8%
CC(NCCO)C(=O)C12CC3CC(CC(C3)C1)C2 (stereo unspecified) | 6%
O=C1c2ccccc2C(=O)N1Cc1ccco1 | 3%

Molecules above that contain fluorine, in the order listed:
SMILES | HSD17B inhib
CCOC(=O)C1=C(N)Oc2c(oc(CO)cc2=O)C1c1c(F)cccc1Cl (stereo unspecified) | 0%
Fc1cccc2sc(N3CCOCC3)nc12 | 9%

Following part:
SMILES | HSD17B inhib
CC(C)N(Cc1ccccc1)C(=O)c1cnc2n(c1=O)CCS2 | -22%
CCOC(=O)c1ccc(N2C(=O)C(C)=C(C)C2=O)cc1 | 1%
Cc1cc(C(=O)Nc2ccccn2)cs1 | -3%
O=C(COc1ncnc2ccccc12)N1CCN(S(=O)(=O)c2ccccc2)CC1 | 5%
COc1ccc(OC)c(NC(=O)C2CCN(c3nc(C)cc(C)n3)CC2)c1 | -8%
CC1=C(C(N)=O)C(c2ccccc2)n2nc(-c3cccs3)nc2N1 (stereo unspecified) | -4%
CSc1ccc(-c2c(C#N)c(N)nc3c2CCCC3)cc1 | -17%
O=C(O)CCC(=O)NCc1ccc2[nH]c3c(c2c1)CCCC3 | -17%
N#CC(CC(=O)O)=C(c1ccccc1)c1ccccc1 | -1%[11.4 µM]
CS(=O)(=O)N(CC(=O)N1CCCC1)c1cccc(Cl)c1Cl | 4%
CN1CCN(c2ncnc3ccc(-c4ccccc4Cl)cc23)CC1 | u
CCCCNC(=O)CCSc1nc2nc(C)cc(C)n2n1 | -6%
COc1ccc(N2C(=O)C3CCCN3C2c2ccccc2)cc1 (stereo unspecified) | 7%
Cc1c(NC(=O)c2cccc(F)c2)c(=O)n(-c2ccccc2)n1C | 1%
O=C(Nc1ccc2nc(-c3cccnc3)[nH]c2c1)c1ccco1 | -12%
CCOC(=O)N1CCC(n2c(SCC(=O)NCCC3=CCCCC3)nc3ccccc3c2=O)CC1 | -6%
CSc1nc(-c2ccco2)nn1S(C)(=O)=O | 5%
CCN(CC)CCNC(=O)NC1CCCCC1 | -2%
COC(=O)COC(=O)c1ccc(-n2nnnc2SC)cc1 | 5%
CCC(=O)N1CCc2cc(Br)cc(S(=O)(=O)N3CCN(c4ccccn4)CC3)c21 | 7%
CCS(=O)(=O)NCc1cn2c(C)csc2n1 | 8%
COc1ccc(OC)c(NC2c3ncccc3C(=O)N2Cc2ccco2)c1 (stereo unspecified) | u
CCn1c(SCC(=O)NCC(=O)Nc2ccc(F)cc2)nnc1-c1cccs1 | -6%
COc1cccc(C(=O)NC2CCSC2=O)c1 (stereo unspecified) | 8%

4 entries drawn at random from the list so far, as already listed:
SMILES | HSD17B inhib
Cc1ccc(OCCCC(=O)Nc2ccc3c(c2)OCO3)cc1 | -9%
O=C(COc1ncnc2ccccc12)N1CCN(S(=O)(=O)c2ccccc2)CC1 | 5%
CC(C)CCNC(=O)CN(C)S(=O)(=O)c1cccc2nsnc12 | 7%
N#CC(CC(=O)O)=C(c1ccccc1)c1ccccc1 | -1%[11.4 µM]

Carrying on.
SMILES | HSD17B inhib
Cc1cc(C)cc(N(CC(=O)N2CCN(c3ccccc3)CC2)S(=O)(=O)c2c(C)noc2C)c1 | 1%
CC12COC3(C(=O)Nc4ccc(Cl)cn4)CC1CCC32C (stereo unspecified) | -2%
CN(C(=O)c1ccccn1)c1nnc(-c2cnccn2)s1 | 13%
CCOC(=O)c1[nH]c(Cc2[nH]c(C(=O)OCC)c(C)c2CCC(=O)OC)c(CCC(=O)OC)c1C | -13%
O=C(CCn1c(=O)c2sccc2n(CC(=O)NCc2ccco2)c1=O)NCc1ccccc1 | -3%
Cc1ccnc(Sc2nc3c(c(=O)[nH]c(=O)n3C)n2CCCc2ccccc2)n1 | 1%
O=C(Cn1c(=O)sc2ccccc21)Nc1ccccc1C(=O)O | u
CCCCNC(=O)Nc1ccnn1C1CCCCC1 | 2%
NCCCCNS(=O)(=O)c1ccc2c(Cl)cccc2c1 | -11%
CC(Oc1ccc(Cl)cc1)C(=O)Nc1nccs1 (stereo unspecified) | 6%
CCCN(CCC(=O)Nc1cc(OC)cc(OC)c1)CC1CC1 | -21%
O=C1N(c2ccccc2)C2CS(=O)(=O)CC2N1c1ccc(Br)cc1 (stereo unspecified) | -3%

Laid out differently: 5 of the compounds above
SMILES,HSD17B inhib
O=C(CCn1c(=O)c2sccc2n(CC(=O)NCc2ccco2)c1=O)NCc1ccccc1,-3%
Cc1ccnc(Sc2nc3c(c(=O)[nH]c(=O)n3C)n2CCCc2ccccc2)n1,1%
O=C(Cn1c(=O)sc2ccccc21)Nc1ccccc1C(=O)O,u
CCCCNC(=O)Nc1ccnn1C1CCCCC1,2%
NCCCCNS(=O)(=O)c1ccc2c(Cl)cccc2c1,-11%

The results go on.
SMILES | HSD17B inhib
C=CCNc1nc2c3ccccc3n(C(C)=O)c2s1 | -14%
C=CCN1C(=O)C(O)(CC(=O)c2ccc(OC)cc2OC)c2cc(Br)ccc21 (stereo unspecified) | -6%
CC(=O)c1cc2c(cc1NC(=O)CSc1nc3ccccc3o1)OCO2 | 20µM*
CCCOc1ccc(OC(=O)c2ccc(Br)o2)cc1 | -4%
Cc1ccccc1-c1nc(CN2CCC(C(=O)NC3CCN(Cc4ccccc4)CC3)CC2)c(C)o1 | 5%
COC(=O)c1[nH]c2ccccc2c1NC(=O)CCN1CCN(C2CCCCC2)CC1 | u
O=C(O)C1CC(=O)N(Cc2cccnc2)C1 (stereo unspecified) | -4%
COC(=O)[C@@]1(Cc2ccc(OC)cc2)[C@H]2c3cc(C(=O)N(C)C)n(Cc4ccc(OC)c(OC)c4)c3C[C@H]2CN1C(=O)c1ccccc1 | 5%
O=C(NC1CCCCCC1)C1c2ccccc2C(=O)N1Cc1cccnc1 (stereo unspecified) | 6%
O=C(NCc1cn2ccccc2n1)c1ccc(Br)o1 | 8%
O=C1CN(c2ccccc2F)C(=O)CN1c1ccccc1F | 9%
N#CCCn1c(=O)c(-c2cccs2)nc2cnc(N3CCOCC3)nc21 | 25µM*
O=C(O)C1C2C=CC(C2)C1C(=O)NCCCN1CCOCC1 (stereo unspecified) | 12%
COCCCNC(=O)CCCC(=O)NCCCOC | 9%
O=S(=O)(c1cccc2nsnc12)N1CCc2ccccc2C1 | -1%
COC(=O)[C@H](Cc1ccccc1)NC(=O)NCCc1ccc(S(N)(=O)=O)cc1 | 5%
O=C1CCCC2=C1C(Cc1ccccc1)C1=C(CCCC1=O)O2 | -11%
Cc1noc(C)c1S(=O)(=O)N1CCC(C(=O)N2CCN(Cc3ccc4c(c3)OCO4)CC2)CC1 | 6%
O=C(CCN1CCc2ccccc2C1)c1ccc2c(c1)OCCO2 | 6%
CCN1CCN(Cc2coc3ccc(C)cc3c2=O)CC1 | -7%
O=C(CN(Cc1ccc(F)cc1)C(=O)Cn1nnc2ccccc21)NCC1CCCO1 (stereo unspecified) | 8%
COc1ccc(S(=O)(=O)N2CCCC(C(=O)NC3CCCCC3)C2)cc1 (stereo unspecified) | 5%
C=C(CO)C1Cc2c(ccc3c(=O)c4c(oc23)COc2cc(OC)c(OC)cc2-4)O1 (stereo unspecified) | -10%
Cc1ccc(-c2c3c([nH]c(=S)c2C#N)CCCC3)o1 | u
COc1ccc(C(C)(C)C)cc1NC(=O)Nc1ccc2c(c1)OCO2 | -11%
CCOC(=O)c1c(CN2CCCCC2)n(C)c2cc(Br)c(O)c(CN(C)C)c12 | -10%
O=C(Nc1ccccc1NC(=O)NC1CCCCC1)NC1CCCCC1 | 12%
CCc1ccccc1S(=O)(=O)Cc1ccc(C(=O)NCc2ccc3c(c2)OCO3)o1 | -25%
N=C1CCC[C@@H]1C(=S)SCCC(N)=O | -2%[11.4 µM]
c1ccc(-c2oc3ncnc(NCCCn4ccnc4)c3c2-c2ccccc2)cc1 | 25µM*
CCN(CC)P(=O)(/C(Cl)=C\Nc1c(C)n(C)n(-c2ccccc2)c1=O)N(CC)CC | 0%
Cc1cc2cc(CN(Cc3nnnn3C3CCCCC3)CC3CCCO3)c(=O)[nH]c2cc1C (stereo unspecified) | -14%
CC(C)N(CCC(=O)c1ccc2ccccc2c1)Cc1ccccc1 | 40µM*
CC1=CC(C)(C)N(C(=O)CSc2nccn2C)c2cc(C)ccc21 | -2%

A portion of the library; rates above refer to the full screens.
